eIF4H inh = human eIF4H binding inhibitors, primary screen, translation initiation inhibitor project, biochemical, uHTS, fluorescence polarization | Eukaryotic translation initiation factor 4H (Homo sapiens), Q15056 | eIF4H fluorescence polarization binding assay | inhibition, % at 35 µM | actives 0.94% (n = 290,000);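 active = 50% or more with normal probe brightness, or confirmed in later tests; inconclusive = above 50% with abnormal brightness, or retests that disagree; inactive = below 50% or failed in later tests; about a fifth of its hits are not listed in these tables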;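 note: calls also rest on retests at 20 µM and on dose response follow-up; 0% = protein and probe with vehicle and 100% = probe without protein; strong numbers were not always called active; many hits fall short of the cut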
Yeast UUG start = modulators of yeast start codon fidelity, primary screen, whole organism, S. cerevisiae, single point, plate reader. actives 0.13% (n = 350,000). activity score, % at 18.7 µM. S. cerevisiae UUG-firefly luciferase reporter, luminescence/redox ratio. AID 602363, 2012;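 active = replicate mean at a twofold rise or more, about +100% in these data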;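 note: firefly luciferase made from a UUG start codon reports start codon fidelity; reporter light over untreated wells divided by growth signal over untreated wells; some hits fall short of that in this replicate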
Env fusion inh = inhibitors of HIV-1 Env-driven cell-cell fusion, primary screen, HeLa-JRFL effector, CEM21 target cells, luciferase | actives 1.1% (n = 360,000) | inhibition, % at 12.3 µM;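 active = mean replicate inhibition score of at least 50 and every replicate individually at or above 50; inconclusive = only one of the two criteria met; inactive = mean below 50 and not all replicates reaching 50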;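 note: 0% = plate neutral controls and 100% = maraviroc near 300 nM; one replicate is shown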
CSC inhib = cancer stem cell viability inhibitors, primary screen, luminescence; cancer stem cell-like cells viability; actives 1.1% (n = 300,000); AID 2717, 2010; inhibition, % at 7.5 µM;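 active = mean at 75% or more and at least half the replicates too; inconclusive = mean and replicates disagree; tested in HMLE shEcad cells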;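 note: 0% = median of negative and 100% = median of positive control wells; the first replicate is given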
PABP FP inh = PABP poly(A) RNA binding inhibitors, primary screen, biochemical, fluorescence polarization, uHTS | actives 1% (n = 290,000) | Polyadenylate-binding protein 1 (Homo sapiens), P11940 | inhibition, % at 35 µM;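 active = 50% or more with normal probe brightness, or confirmed in later tests; inconclusive = above 50% with abnormal brightness, or retests that disagree; inactive = below 50% or failed in later tests; about a fifth of its hits are not listed in these tables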;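 note: calls also rest on retests at 20 µM and on dose response follow-up; controls were probe without protein and protein plus probe with vehicle; some compounds called inactive have numbers as strong as hits; many hits fall short of the cut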
Target sequence (P11940 whole entry, looked up): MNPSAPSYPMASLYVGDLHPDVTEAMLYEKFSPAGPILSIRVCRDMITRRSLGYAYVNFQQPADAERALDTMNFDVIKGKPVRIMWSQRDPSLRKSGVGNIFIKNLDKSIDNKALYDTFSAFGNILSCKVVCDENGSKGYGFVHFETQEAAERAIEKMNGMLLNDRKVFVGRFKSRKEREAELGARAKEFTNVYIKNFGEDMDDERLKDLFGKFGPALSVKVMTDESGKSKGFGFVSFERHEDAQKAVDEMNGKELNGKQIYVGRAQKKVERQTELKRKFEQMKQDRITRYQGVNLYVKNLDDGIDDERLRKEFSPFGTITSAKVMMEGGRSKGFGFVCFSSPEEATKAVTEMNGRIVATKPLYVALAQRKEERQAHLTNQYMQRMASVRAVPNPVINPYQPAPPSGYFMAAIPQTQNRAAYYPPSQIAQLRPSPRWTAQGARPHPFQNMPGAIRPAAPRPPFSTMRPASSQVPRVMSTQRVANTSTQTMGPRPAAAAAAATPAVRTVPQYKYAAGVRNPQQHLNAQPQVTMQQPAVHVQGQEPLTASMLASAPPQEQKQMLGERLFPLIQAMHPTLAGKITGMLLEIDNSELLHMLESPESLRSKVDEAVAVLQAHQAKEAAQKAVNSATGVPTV
Rce1 inhib = yeast Rce1p protease inhibitors, primary screen, biochemical, fluorescence, cell-free homogeneous. CAAX prenyl protease 2 (Saccharomyces cerevisiae (strain ATCC 204508 / S288c)), Q03530. yeast membranes, quenched prenylated peptide cleavage fluorescence. calls only. actives 0.27% (n = 290,000). AID 2563, 2010;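 active = fall in fluorescence gain of 50% or more versus controls, with final raw signal at or below 3038400; inconclusive = same 50% fall but final raw signal above 3038400; inactive = fall in fluorescence gain under 50%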;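 note: plate controls were neutral control wells for no effect and wells lacking membranes for full effect; tested at 10 µM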
Target sequence (Q03530 whole entry, looked up): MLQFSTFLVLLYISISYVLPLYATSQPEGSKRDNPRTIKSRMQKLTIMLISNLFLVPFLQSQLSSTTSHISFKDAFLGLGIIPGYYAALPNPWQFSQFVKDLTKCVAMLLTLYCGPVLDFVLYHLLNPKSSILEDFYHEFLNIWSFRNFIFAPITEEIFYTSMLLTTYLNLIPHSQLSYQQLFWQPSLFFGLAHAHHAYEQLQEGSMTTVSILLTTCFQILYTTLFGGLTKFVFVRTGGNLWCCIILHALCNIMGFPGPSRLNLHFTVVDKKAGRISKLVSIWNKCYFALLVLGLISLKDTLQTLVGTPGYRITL
MT1-MMP act inh = blockers of MT1-MMP proenzyme processing, primary screen, HT1080 RFP-PRO-GFP cells, GFP/RFP fluorescence | Matrix metalloproteinase-14 (Homo sapiens), P50281 | GFP/RFP ratio fluorescence, overnight; percent of plate control window, DMSO zero | GFP/RFP ratio change, % at 20 µM | actives 0.061% (n = 360,000) | AID 651647, 2012;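 active = GFP/RFP ratio change of at least 30% with cell ATP level not reduced by more than half and red fluorescence within 50% of control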; note: strong numbers were not always called active
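Compound: 20 µM single dose, 1% DMSO / System: HT1080 RFP-PRO-GFP cells / Controls: DMSO and RFP-L50D-GFP cell wells / Read-out basis: GFP/RFP fluorescence ratio / Schedule: overnight compound exposure at 37 °C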
MT1-MMP act inh RFP = further read-out of MT1-MMP act inh, marked with its call; RFP signal change, %; measured here: RFP expression control read;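 0 = vehicle wells; hits needed this value within 50% of zero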
Starred values were filed as active, the others as inactive; i = inactive; ? = inconclusive; nt = no result given; & = joins results of further samples; [ ] = dose if it differs, or a comment. The list is partial; the hit share may differ from the screen's.

SMILES	eIF4H inh	Yeast UUG start	Env fusion inh	CSC inhib	PABP FP inh	Rce1 inhib	MT1-MMP act inh	MT1-MMP act inh RFP
O=C1CCCC(=O)N1c1ccc(N2CCOCC2)c([N+](=O)[O-])c1	2	-20	16	2	-2	i	1	4
CN(C)c1ccc(C(CNC(=O)c2cccs2)N(C)C)cc1 (stereo unspecified)	3	-15	-14	-4	-1	i	3	1
COC(=O)CSc1nnc(Cc2ccccc2)n1-c1ccc(C)cc1	3	4	2	-5	8	i	3	-1
CCCNC(=O)COc1ncnc2sccc12	22	-8	14	-21	-8	i	3	5
O=C(NCc1ccc(F)cc1)c1cc2n(n1)C(C(F)(F)F)CC(C1CC1)N2 (stereo unspecified)	1	-5	-22	-1	19	i	2	1
COc1ccc(CN2CC34C=CC(O3)C(C(=O)O)C4C2=O)cc1 (stereo unspecified)	-3	-15	7	17	-1	i	0	4
CCN(CC(=O)Nc1cccc(C#N)c1)CC(=O)Nc1cccc(OC)c1	-7	-5	2	-9	-26	i	4	0
Cc1ccc(C(=O)NCC(=O)Nc2cccc(S(=O)(=O)NC3=NCCCCC3)c2)cc1C	4	2	-1	-23	-8	i	5	1
COc1ccc(C2=NOC(C(=O)N3CCCc4ccccc43)C2)cc1 (stereo unspecified)	-3	-5	-65	-6	0	i	1	1
COc1cccc(CNC(=O)C2CC(=O)N(C3CCCCC3)C2)c1 (stereo unspecified)	-9	-4	1	16	0	i	-11	1
COc1cc(NC(=O)c2cc3nc(-c4ccccc4)cc(-c4ccccc4)n3n2)cc(OC)c1OC	9	4	-39	10	8	i	10	-3
O=[N+]([O-])c1cccc(S(=O)(=O)Nc2ccc3cn[nH]c3c2)c1	nt	-21	nt	4	nt	nt	-1	2
O=C(c1ccco1)N1CCN(C(=O)N2c3ccccc3Sc3ccccc32)CC1	-2	-5	nt	70	0	i	13	-2
Cc1ccc(C)c(N2CCN(C(=O)c3ccccc3Br)CC2)c1	nt	-35	nt	nt	nt	i	-10	-5
C[C@H](CO)N1C[C@H](C)[C@@H](CN(C)C(=O)NC2CCCCC2)Oc2ccc(NS(=O)(=O)c3ccc(F)cc3)cc2C1=O	nt	9&10	-2	-6	nt	nt	4	3
CC(=O)Oc1ccc(N2C(=O)CCC2=O)cc1	4	7	nt	-9	-13	i	-3	-5
CCOc1ccc(CCNC(=O)CCN2C(=O)COc3ccccc32)cc1OCC	1	-22	nt	-1	10	i	-3	2
CC1CN(C(=O)COC(=O)CSc2ccc([N+](=O)[O-])cc2)CC(C)O1 (stereo unspecified)	nt	-33	9	nt	nt	nt	-2	0
CCC1=Nc2cc(C(=O)NCCN3CCCC3)ccc2Sc2ccccc21	-2	6	-5	-6	6	i	3	9
Cc1ccc(NC(=O)CSc2nc3ccccc3c(=O)n2CC2CCCO2)cc1 (stereo unspecified)	-5	-10	-10	10	-4	i	-1	-1
CC(=O)NC(c1ccccc1)c1cccnc1 (stereo unspecified)	10	-21	-15	-11	7	i	3	8
COC(=O)[C@@H](Cc1ccccc1)NC(=O)/C=C/[C@H]1O[C@@H](n2cnc3c(NC(=O)c4ccccc4)ncnc32)[C@H](O)[C@@H]1O	nt	-9	22	nt	nt	nt	-1	0
CC1(c2ccc(OC(F)F)cc2)NC(=O)N(CC(=O)Nc2ccc(F)cc2)C1=O (stereo unspecified)	-12	-4	-9	-10	-2	i	3	-1
CCC(=O)N1N=C(c2ccccc2)CC1c1ccccc1 (stereo unspecified)	-11	-15	3	-12	0	i	-2	0
CC(=O)Nc1ccc(NC(=O)c2ccccc2Br)cc1	nt	-5	13	nt	nt	nt	1	2

The list continues.
SMILES	eIF4H inh	Yeast UUG start	Env fusion inh	CSC inhib	PABP FP inh	Rce1 inhib	MT1-MMP act inh	MT1-MMP act inh RFP
CCOC(=O)Nc1ccc2c(c1)N(C(=O)CN1CCN3CCCC3C1)c1ccccc1CC2 (stereo unspecified)	4	-18	-52	-15	38	i	-8	4
COc1ccc([N+](=O)[O-])cc1-n1cnnn1	-4	-7	7	nt	0	i	2	3
CC(NC(=O)COc1ncnc2cc([N+](=O)[O-])ccc12)c1ccccc1 (stereo unspecified)	15	-11	1	-5	-10	i	2	3
N=c1oc2ccccc2cc1-c1nc(-c2ccccc2)cs1	?	-12	nt	30	-2	i	-3	-3
CCn1c2ccccc2c2cc(NC(=O)COc3ccccc3)ccc21	-11	nt	17	-8	-14	i	0	2
COc1cccc(C(CC(=O)NCc2ccco2)NS(=O)(=O)c2ccc(C)cc2)c1OC (stereo unspecified)	0	-24	nt	-2	5	i	0	6
c1ccc(Nc2ccccn2)cc1	4	-14	17	-5	2	i	6	9
CCCCNC(=O)Nc1cc(C(F)(F)F)c[nH]c1=O	-8	-10	-84	0	-9	i	4	8
Cc1onc(-c2ccccc2)c1C(=O)N1CCN(c2ccccc2F)CC1	4	1	8	4	3	i	-1	-4
COc1ccccc1OCCNc1cc(N2CCOCC2)ccc1[N+](=O)[O-]	-5	19	nt	-13	5	i	9	-7
O=C(Nc1ccccc1)c1ccccc1NC(=O)c1ccccc1[N+](=O)[O-]	nt	-1	-6	-29	nt	nt	3	0
CCCOc1ccc(C(=O)CCC(=O)NNC(=O)Cn2nc(C)cc2C)cc1	nt	-12	5	0	nt	i	3	4
O=C(CN1C(=O)NC2(CCCCC2)C1=O)Nc1cccc(Cl)c1Cl	nt	-11	1	nt	nt	nt	-3	1
C(/CCc1ccccc1)=N\Nc1nc2ccccc2[nH]1	7	nt	43	-2	-4	i	10	8
Cn1nc(C(F)(F)F)c2cc(NC(=O)OCc3ccc(F)cc3)sc21	-14	-15	nt	-8	-6	i	-8	-3
COc1ccccc1-c1cc(C(F)(F)F)nc(NCc2ccco2)n1	6	-7	-99	13	12	i	-5	-6
CCOC(=O)N1CCC(NC(=O)Cc2ccccc2)CC1	-6	-15	-9	-16	11	i	-1	2
COc1ccccc1CNC(=O)C1CCN(C(=O)N(C)C)CC1	-2	-3	-26	-15	-6	i	1	2
O=C(Nc1ccccc1)c1nnsc1S(=O)c1ccc(Cl)cc1 (stereo unspecified)	1	4	nt	106*	8	i	-7	-4
O=C(C(Cc1ccccc1)n1cccc1)N1CCN(C2CCCCC2)CC1 (stereo unspecified)	4	-1	6	44	26	i	7	7
CC1=CSC2=NC(C(F)(F)F)(C(F)(F)F)NC(=O)N12	-6	nt	-4	-3	-4	i	1	6
O=C(Nc1ccc(Cl)c(Cl)c1)Nc1ccon1	-8	-6	-21	47	-7	i	-8	-12
O=C(N[C@@H](Cc1ccccc1)C(=O)OCc1ccccc1)c1nc[nH]c1C(=O)NC(c1ccccc1)c1ccccc1	8	-1	-35	-1	4	i	-6	-1
COc1ccc(C(=O)Nc2nccs2)cc1	-5	-18	-59	-6	3	i	-3	0
CCOC(=O)c1sc(NC(=O)c2cc3n(n2)C(C(F)(F)F)CC(c2cccs2)N3)c(C(=O)OCC)c1C (stereo unspecified)	-4	-20	nt	65	-1	i	0	-3

Further results.
SMILES	eIF4H inh	Yeast UUG start	Env fusion inh	CSC inhib	PABP FP inh	Rce1 inhib	MT1-MMP act inh	MT1-MMP act inh RFP
COC(=O)C(NS(C)(=O)=O)(c1c(C)[nH]c2ccccc12)C(F)(F)F (stereo unspecified)	3	-18	-35	-12	5	i	2	2
COc1ccc(OCCCCN(C)Cc2ccccc2)cc1	4	-16	15	nt	-3	i	3	6
CC(=O)c1cc(C#N)c(Oc2cccc(C(F)(F)F)c2)nc1C	-11	-2	nt	nt	-3	i	4	-1
COc1cccc(C2CC(c3ccccc3OC)n3nc(N)nc3N2)c1 (stereo unspecified)	-4	-30	-11	-4	-9	i	1	-1
CCOc1ccc(CNC(=O)CCC(=O)N2Cc3cccc(OC)c3Oc3ncccc32)cc1	-2	-9	4	-7	0	i	0	5
COC(=O)c1[nH]c2ccccc2c1NC(=O)CN1CCC(C(N)=O)(N2CCCCC2)CC1	-10	2	nt	nt	-7	i	-4	4
COc1cc(NC2c3ccccc3C(=O)N2Cc2ccc3c(c2)OCO3)cc(OC)c1OC (stereo unspecified)	-8	1	87*	11	6	i	0	-1
COc1ccc(C(=O)Nc2cccc(/C=C/c3nc4ccccc4c(=O)[nH]3)c2)cc1	-7	nt	39	78*	-10	i	-6	-6
CCC1CN(C(=O)N2CCC(C(=O)NCc3ccc(C)o3)CC2)c2cc(C)ccc2O1 (stereo unspecified)	-7	4	8	-6	8	i	4	-1
Cc1cccc(NC(=O)CCc2nc3sc4c(c3c(=O)[nH]2)CCCC4)n1	nt	-9	-3	-12	nt	i	-7	-2
CC(=O)Cc1nsc(NC(=O)c2ccc(-c3cc(C(F)(F)F)ccc3Cl)o2)n1	-7	-19	-26	57	-4	i	-7	-11
C/C(Cl)=C/Cn1c(=O)c2c(nc(Br)n2Cc2ccccc2)n(C)c1=O	0	-7	nt	2	-3	i	-5	-8
CCn1c(Cc2c(C)[nH]c3ccccc23)nnc1SCC(N)=O	-7	nt	nt	-7	-4	i	4	7
O=C(NC(CSCc1ccccc1)C(=O)N/N=C/c1ccc(O)cc1O)c1ccc([N+](=O)[O-])cc1 (stereo unspecified)	12	-25	-40	105*	-9	i	-2	-7
CCO[C@@H]1OC(C(=O)Nc2ccccc2)=C[C@H](C)[C@H]1CCCO	nt	-4&-11	-4[16.7 µM]	34	nt	i	9	3
CN(C)C1(CNC(=O)C2CCN(S(=O)(=O)c3cc(Cl)ccc3Cl)CC2)CCCCC1	15	-18	nt	58	6	i	2	0
O=C(NCc1ccccc1)c1cc(-n2cnnc2)ccc1Cl	10	-17	nt	1	4	nt	-1	5
CSc1nc2[nH]c3c(c2c2nncn12)CC(C)(C)OC3	-2	6	nt	-13	4	i	0	-1
Cc1ccnc(NC(=O)COc2c(C)cc(C)cc2[N+](=O)[O-])c1	8	0	12	-10	-7	i	1	1
COc1cc(/C=N/N=C(\N)c2nonc2N)cc(OC)c1OC	-1	nt	9	nt	-6	i	3	1
Cc1ccc(NC(=O)CN(C)C(=O)Cn2nnc(-c3ccccc3)n2)cc1	nt	-4	nt	-9	nt	i	4	0
CCSc1nc2cc(OC)c(OC)cc2c(=O)n1CCc1ccccc1	-1	-10	43	8	-1	i	-1	-2
Cc1ccc(C(=O)N2CC(C)OC(C)C2)c(Cl)c1 (stereo unspecified)	-10	-7	-20	-7	-2	i	-1	3
COc1cccc(N(Cc2nnc3n2CCCCC3)C(=O)Nc2ccccc2F)c1	2	-24	20	-3	-3	i	-3	1
Cc1noc(C)c1CSc1nc2sc(C)c(C)c2c(=O)n1-c1ccccc1	2	-7	nt	14	-8	i	2	0
COc1ccc(C(C(=O)NC(C)(C)C)N(C(=O)CNC(=O)c2cccs2)c2ccc(NC(C)=O)cc2)cc1OC (stereo unspecified)	0	9	-2	-17	-1	i	-2	2
CCC(C)NCCOc1ccc(Br)cc1 (stereo unspecified)	4	nt	-113	0	12	i	8	4
COc1ccc(C2Nc3ccccc3C(=O)N2c2ccc(F)cc2)cc1CSc1ccccn1 (stereo unspecified)	0	nt	nt	-13	-4	i	0	3

From PubChem
